NPYLR7 ag – mosquito NPYLR7 agonism; HEK293T NPYLR7/Galpha15, GCaMP6s calcium fluorescence; activation, % at 10 µM; 0.15% of 270,000 active; AID 1259423; in the data active = activation above about 40%;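 also: 0% = vehicle and 100% = reference agonist at the receptor; some compounds past the cut are filed as inactive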
NPYLR7 ag max-min – further read-out of NPYLR7 ag, marked with its call; activation, %; measured here: Max-Min RFU normalised activation; some inactives read as strong as hits;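 span of the calcium signal over five minutes; 0% = vehicle and 100% = native peptide agonist; compound fluorescence can raise it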
Numbers without * were called inactive; & = joins results of further samples. An excerpt; rates above refer to the full screens.

SMILES	NPYLR7 ag	NPYLR7 ag max-min
O=C(Cc1ccccc1)Nc1cc(NC(=O)N2CCCCCC2)ccc1F	0	-3
Cc1cc(O)c(CN2CCN(CCO)CC2)c2c1C(=O)/C(=C/c1ccccc1)O2	16	13
Cn1cc(C(C)(O)CNc2cccc(F)n2)cn1 (stereo not drawn)	-1	-5
O=C(NCCc1ccc2c(c1)OCCO2)Nc1ccccc1F	0	0
CN(Cc1cccc2nccnc12)CC1Cc2ccccc2CN1C (stereo not drawn)	16	10
O=C(Nc1ccc(N2CCc3ccccc3C2)c(C(=O)NCC2CCCO2)c1)c1ccc(Cl)cc1Cl (stereo not drawn)	14	16
Cc1c(C(=O)OC(C)C(N)=O)sc2nc3n(c(=O)c12)CCC3 (stereo not drawn)	5	11
CC(C)C1CN(C(=O)c2ccc(-c3ncn[nH]3)cc2)CCC(=O)N1CC1CC1 (stereo not drawn)	3	-15
CC(NC(=O)CC1Sc2ccccc2NC1=O)c1ccccc1Cl (stereo not drawn)	1	1
Cc1csc(=O)n1CCC(=O)OCc1nc2ccsc2c(=O)[nH]1	1	0
COc1ccc(CCN(C)Cc2nc(Cc3ccc(OC)c(OC)c3)no2)cc1OC	11	8
CC1(C(=O)NCCC(F)(F)F)Cc2c(-c3cccc(C(F)(F)F)c3)ccnc2O1 (stereo not drawn)	2	0
Cn1c(=O)c2c(nc(N3CCCCCC3)n2CCSc2nc3ccccc3o2)n(C)c1=O	12	6
Cc1cccc2nc(C(=O)N3CCC4(CC3)c3ccccc3[C@@H](N)[C@@H]4O)cn12	-4	-9
NC1=NC(=O)/C(=C\c2ccc3c(c2)OCO3)S1	-4	-5
Cc1cc(Oc2ccc3c(c2)OCO3)nc(SCc2cc(F)cc(F)c2)n1	24	32
CCOC(=O)c1ccc2c(c1)nc(SCC(=O)NCC1CCCO1)n2Cc1ccccn1 (stereo not drawn)	3	-1
COc1ccc(C2=Nc3cccc4cccc(c34)N2)cc1	11	4
Cc1ccc(-n2[nH]c(-c3ccccc3F)c(-c3ccc(N)cc3)c2=O)cc1	34	39
CC(=O)NC(C)(C)c1noc(-c2ccc3c(c2)NC(=O)CCS3)n1	0	17

Look-ups from the list:
Under NPYLR7 ag max-min, `CC(=O)NC(C)(C)c1noc(-c2ccc3c(c2)NC(=O)CCS3)n1` has the entry 17
Under NPYLR7 ag max-min, `Cc1cc(Oc2ccc3c(c2)OCO3)nc(SCc2cc(F)cc(F)c2)n1` has the entry 32
Under NPYLR7 ag max-min, `NC1=NC(=O)/C(=C\c2ccc3c(c2)OCO3)S1` has the entry -5

Continued:
SMILES	NPYLR7 ag	NPYLR7 ag max-min
Cn1cnnc1SCC(=O)Nc1ccc2c(c1)OC(F)(F)O2	4	0
COc1ccc(C(=O)CSc2nccn(-c3ccc(C)cc3)c2=O)cc1OC	-18	-23
CCOC(=O)N1CCC(N2CCC(CO)(Cc3ccc(OC)cc3)CC2)CC1	8	13
CC(C(=O)O)N1C(=O)/C(=C/c2ccc(Cl)cc2Cl)SC1=S (stereo not drawn)	-5	-9
COCCn1c(SCC(=O)c2c(C)[nH]c3ccccc23)nc2cc(C(=O)NC(C)C)ccc2c1=O	-3	-10
NC1CCN(c2cccc(Cl)n2)CC1	-10&1	-15&-25
Cc1ccc(CCC(=O)N2CCC(n3cnc4ccc(F)cc43)CC2)cc1	2	3
Cc1nn2cc(CNC(=O)COc3c(C)ccc(C)c3C)nc2s1	-3	-6
CCCn1c(C(=O)NCC(=O)c2ccccc2)cc2c(=O)n(C)c(=O)n(C)c21	-4	-4
O=C(O)c1ccc(CNC(=O)c2cccc3c2OCCO3)cc1	8	5
O=C(Nc1nc([C@@H]2O[C@H](CO)[C@@H](O)[C@H](O)[C@H]2O)cs1)Nc1ccc(Br)cc1Br	14	20
Cc1nccn1-c1ccc(NC(=O)C2CCCN(C/C=C/c3ccc(F)cc3)C2)cc1 (stereo not drawn)	11&-12	3&-12
COc1ccc(OC)c(-n2ccnc2-c2cccc(O)c2)c1	4	-7
COc1cc(/C=C2/NC(=S)NC2=O)cc(Br)c1OC(=O)C12CC3CC(CC(C3)C1)C2	-5	-11
CC(C)SC(NC(=O)OCc1ccccc1)C(=O)NCc1nc2ccccc2[nH]1 (stereo not drawn)	-7	-15
O=C(NC1CCCCC1)N(CC(=O)N1c2ccccc2-n2cccc2C1c1ccccc1)C1CC1 (stereo not drawn)	-6	5
CCCSc1nc2c(c(=O)[nH]1)C(c1sccc1C)C(C(=O)OCC)C(C)=N2 (stereo not drawn)	1	-1
Cc1c(C(=O)O)cccc1-c1ccccn1	-3	452
COc1ccc(OC)c2sc(N(CCN(C)C)C(=O)c3cccc([N+](=O)[O-])c3)nc12	-4	-9
COc1cc(/C=N\N=C2/NC(=O)C(CC(=O)Nc3cccc(Cl)c3Cl)S2)ccc1O (stereo not drawn)	14	13

Structural class, those above containing two or more sulfur atoms (three)
SMILES	NPYLR7 ag	NPYLR7 ag max-min
Cc1csc(=O)n1CCC(=O)OCc1nc2ccsc2c(=O)[nH]1	1	0
CC(C(=O)O)N1C(=O)/C(=C/c2ccc(Cl)cc2Cl)SC1=S (stereo not drawn)	-5	-9
CCCSc1nc2c(c(=O)[nH]1)C(c1sccc1C)C(C(=O)OCC)C(C)=N2 (stereo not drawn)	1	-1

(next part)
SMILES	NPYLR7 ag	NPYLR7 ag max-min
COCC(=O)N(Cc1csc(COc2cccc(C)c2C)n1)C(C)C	10	0
O=C1Nc2ccccc2/C1=N/n1cnc2c(cnn2-c2ccccc2)c1=O	-16	-18
C/C=C/C=Cc1nc(-c2cnccn2)no1	0	-3
CCCCCCCCC(=O)Nc1c(-c2cc(C)cc(C)c2)nc2cc(C)ccn12	-5	1
CC(C)N=C1NN=C(c2cc3ccccc3o2)CS1	6	1
Cc1ccc2nc(COC(=O)c3cnccn3)cc(=O)n2c1	0	9
COc1ccc(C=CC(=O)OC(C)CN2CCCCC2)cc1 (stereo not drawn)	-4	-8
CC1=C(C(=O)OCC(C)C)C(c2ccccc2OCc2ccccc2)C2=C(CC(c3ccccc3)CC2=O)N1 (stereo not drawn)	2	-1
Cc1cc(F)ccc1NC(=O)CCC1CCCN(Cc2c(C)nn(C)c2Cl)C1 (stereo not drawn)	12	4
Cc1cc(C(F)(F)F)c2c(N)c(C(=O)c3ccc4c(c3)OCO4)sc2n1	2	0
CC(C)=CCC/C(C)=C/CNC(=O)c1cc(N2CCCC(C)C2)nc2ccccc12 (stereo not drawn)	11	22
COc1ccc(OC)c(C(C)=NN=C(N)N)c1	1	-4
Cc1csc(=O)n1CC(=O)NC1CCC(C)CC1 (stereo not drawn)	0	-4
CN(Cc1ccc(Sc2ncccn2)o1)CC1CC(=O)N(C2CCCC2)C1 (stereo not drawn)	-5	-9
CCOc1ccc(-n2nnnc2CNS(=O)(=O)c2ccc(CC)s2)cc1	-3	-3
CCC(C)C(C)=NNc1ccc(S(N)(=O)=O)cc1[N+](=O)[O-] (stereo not drawn)	0	1
Nc1ccc(S(=O)(=O)N2CCCC2)cc1	8	11
Cn1nc(CC2CCN(C(=O)C3CC3(F)F)CC2)n(-c2ccccc2)c1=O (stereo not drawn)	-2	-4
COc1cccc(CN2CCC(C(=O)NC(c3ccc(Cl)cc3)c3cnccn3)CC2)c1 (stereo not drawn)	-18	-20
S=c1nc(Cc2cccs2)[nH][nH]1	1	1
CC(=O)O[C@@H](C)C(=O)N1CCN(Cc2cc(=O)c(OCc3ccc(-c4ccccc4C#N)cc3)co2)CC1	13	5
Cc1ccc(O)c(NC(=O)c2cnn3c(C(F)(F)F)cc(-c4ccccc4)nc23)c1	-9	-11
CN(Cc1ccc(C(=O)NC2CC2)cc1)C(=O)c1cccc(F)c1	0	-2
Cc1cc2c(cc1S(N)(=O)=O)S(=O)(=O)CCC2	7	5
Cc1cccc(C)c1OCC(=O)Nc1ccc(-c2nnc(N(C)C)o2)cc1	0	10
COc1ccc2[nH]c3c(c2c1)CCN(C(=O)CCCCCCl)C3c1ccccc1OC (stereo not drawn)	5	3
O=C(c1cccc(C(F)(F)F)c1)C1CCCN(C(=O)c2cccc(N3CCCC3=O)c2)C1 (stereo not drawn)	6	6
COc1ccc(-c2cc3c(=O)n(CC(=O)N4CCCc5ccccc54)ccn3n2)cc1OC	9	6
CCS(=O)(=O)NCc1ccc(Oc2c(OC)cccc2OC)nc1	-5	-5
CC(C)=CCN1N=C(c2ccccc2)C(O)O1 (stereo not drawn)	8	2
Cc1nn(S(=O)(=O)c2ccccc2[N+](=O)[O-])c(C)c1Sc1ccccc1	1	2
COc1ccc(N2CCN(C(=O)C3CCCCC3C(=O)NN(C)c3ccccc3)CC2)cc1 (stereo not drawn)	-9	-16
Cc1ccc(S(=O)(=O)c2cnc(SCC(=O)Nc3cccc(C(F)(F)F)c3)[nH]c2=O)cc1	6	5
COc1ncccc1NC(=O)Cc1cc(Cl)c2c(c1)OCCCO2	2	1
COc1ccccc1CN(C)C(C)C(=O)Nc1ccc2[nH]c(=O)[nH]c2c1 (stereo not drawn)	7	7
CC(C)c1ccc(-n2c(=O)c3ccccc3n(CC(=O)N3CCCC3)c2=O)cc1	-19	-8
O=S(Cc1ccc(Cl)cc1)Cc1cccc2ccccc12 (stereo not drawn)	7	5
CCN(C(=O)c1c[nH]c2c(c(C)nn2-c2ccccc2)c1=O)c1ccccc1	0	18
COc1ccccc1CN1C(=O)O[C@@H]2CN(C(=O)c3ccc(=O)[nH]c3)C[C@@H]21	12	3
CCN(CC)c1ccc(CN2CCN3C(=O)CNC(=O)C3C2)c(C)c1 (stereo not drawn)	12	9

Quoted from the results shown (4 entries):
SMILES	NPYLR7 ag	NPYLR7 ag max-min
O=S(Cc1ccc(Cl)cc1)Cc1cccc2ccccc12 (stereo not drawn)	7	5
CCN(C(=O)c1c[nH]c2c(c(C)nn2-c2ccccc2)c1=O)c1ccccc1	0	18
COc1ccccc1CN1C(=O)O[C@@H]2CN(C(=O)c3ccc(=O)[nH]c3)C[C@@H]21	12	3
CCN(CC)c1ccc(CN2CCN3C(=O)CNC(=O)C3C2)c(C)c1 (stereo not drawn)	12	9

The results go on.
SMILES	NPYLR7 ag	NPYLR7 ag max-min
CC(C(=O)NCCSCc1cccc2ccccc12)n1cncn1 (stereo not drawn)	-8	-7
C[C@@]12C(=O)N(CC3CC3)c3ccccc3[C@@H]1[C@@H](C(N)=O)CN2S(C)(=O)=O	-14	-6
CCOc1c(C)cnc2c1c(=O)n(CC(=O)N1CCCCCC1)c(=O)n2C	0	-2
CC(Cl)=CCSc1nc2c(c(=O)[nH]c(=O)n2C)n1CCCc1ccccc1	-8	-11
Cc1cc(=O)n2c(-c3cccc(NC(=O)C(C)C)c3)csc2n1	8	0
CC(C)(Oc1ccc(Cl)cc1)C(=O)NC1CCOc2ccccc21 (stereo not drawn)	9	2
Cc1noc(-c2ccccc2)c1NC(=O)Nc1nc([C@@H]2O[C@H](CO)[C@@H](O)[C@H]2O)cs1	16	15
O=C(CSc1nnc(Cn2ccc(=O)[nH]c2=O)o1)Nc1nccs1	-5	3
Cc1cc(NC(=O)C2CCN(c3nc4nc[nH]c(=O)c4s3)CC2)ccc1Br	0	4
CCCCCCCCCC(=O)Nc1ccc(N2CCN(c3ccccc3OC)CC2)c(C(=O)NCc2cccnc2)c1	14	22
COCCCNC(=O)c1cc(-c2cccs2)nc2c1c(C)nn2C1CCS(=O)(=O)C1 (stereo not drawn)	2	6
CCOc1ccc2nc(N3CCCN(Cc4ccc(Sc5nncn5C)o4)CC3)nc(C)c2c1	3	4
COCCCNc1nc2nonc2nc1N1CCCC1c1ccccn1 (stereo not drawn)	-7	-10
CN(C)S(=O)(=O)NCc1nnnn1-c1ccc(F)cc1	1	0
O=C(c1nc(C2CC2)nn1-c1cccc2cccnc12)N1CCCCCC1	-7	-14
CC1(C)CC(=O)C(C(=S)Nc2ccccc2)=C(NCc2ccccc2)C1	-4	-5
O=C(NCCCNC(=O)[C@H]1CCCN1S(=O)(=O)Cc1ccccc1)c1ccccc1	9	24
COc1ccc(-c2nc(SCC(=O)Nc3ccccc3)c3c(=O)n(C)c(=O)n(C)c3n2)cc1	7	7
Cc1sc2nc(SCC(=O)Nc3ccccc3)n(-c3ccccc3)c(=O)c2c1C	0	-7
O=C1C[C@H]2CC[C@@H](CN1)N2C(=O)CCc1cnccn1	15	7

Gathered by group: those above with a furan ring, fused or not (three)
SMILES	NPYLR7 ag	NPYLR7 ag max-min
CC(C)N=C1NN=C(c2cc3ccccc3o2)CS1	6	1
CN(Cc1ccc(Sc2ncccn2)o1)CC1CC(=O)N(C2CCCC2)C1 (stereo not drawn)	-5	-9
CCOc1ccc2nc(N3CCCN(Cc4ccc(Sc5nncn5C)o4)CC3)nc(C)c2c1	3	4

The list goes on:
SMILES	NPYLR7 ag	NPYLR7 ag max-min
COC(=O)c1c(C)c(C(=O)CN(CC2CCCO2)C(=O)c2cccc(C(F)(F)F)c2)c(C)n1C (stereo not drawn)	-12	-2
CCOC(=O)C1CCCN(C(=O)c2cccc(CSc3nc(COC)cc(N4CCN(C)CC4)n3)c2)C1 (stereo not drawn)	8	16
CCC(NC(=O)c1cccc(Cl)c1)C1c2cc(OC)c(OC)cc2CCN1Cc1ccccc1F (stereo not drawn)	1	4
CCC1CCc2nc(NC(=O)Cc3c(C)noc3C)sc2C1 (stereo not drawn)	0	0
O=c1[nH]c(Nc2ccccc2)nc2nccc(-c3cccnc3)c12	2	37
COC(=O)CN(C(=S)Nc1ccc(F)cc1)C1CC(=O)N(c2ccc(OC)cc2)C1=O (stereo not drawn)	-10	-14
CC(COc1ccccc1)NC1CCN(C(=O)Nc2ccccc2)CC1 (stereo not drawn)	2	16
CC(=O)CSC(C(N)=O)c1ccccc1 (stereo not drawn)	8	90
Fc1ccc(Nc2nnns2)cc1	2	8
O=C1NCCN2CCN(C(=O)c3ccccc3-c3ccccc3F)CC12 (stereo not drawn)	-4	-3
CC(C)CCn1c(CN2CCN(Cc3ccccc3)CC2)nc2c1c(=O)[nH]c(=O)n2C	1	19
CC(C)CC(NC(=O)c1ccc(Cl)cc1Cl)C(=O)Nc1ncn[nH]1 (stereo not drawn)	2	3
Cc1ccc(C)c(/C=C(/C(=O)N2CCOCC2)c2nc3ccccc3[nH]2)c1	15	14
